Screens (PubChem)
DUX4 inh = blocks DUX4-driven transcriptional activation. 293T-iDUX4 ZSCAN4-Gaussia luciferase reporter, 24 h; stronger effect = lower value. activity change, negative = inhibition, % (concentration not given with the values). 37,000 compounds, 0.8% hits. AID 1224904;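 active means -10% or lower and over 25 points stronger than a control reporter; inconclusive means -10% or lower with a smaller gap; inactive means above -10%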;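 further: 0% = median of neutral control wells and -100% = median of positive control wells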
DUX4 inh difference = recorded beside DUX4 inh, whose call it bears; Gaussia minus Italica difference, %; measured here: selective DUX4 reporter inhibition;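 worked out from the two reporters; negative = selective loss of the DUX4 reporter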
DUX4 inh control = further read-out of DUX4 inh, marked with its call; activity change, negative = inhibition, %; measured here: Italica tet-on control reporter;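 0 = neutral control and -100 = positive control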
Active calls of the source: *; ? = inconclusive; · = no result given. The list is partial; rates above refer to the full screens.

Compound,DUX4 inh,DUX4 inh difference,DUX4 inh control
COc1ccc2c3c([nH]c2c1)[C@@H](CO)N(C(=O)NC(C)C)CC31CN(C(=O)c2ccncc2)C1,6.6,-4.7,11.3
Cn1cnc(S(=O)(=O)N[C@H]2CC[C@@H](CC(=O)NCC3CCCCC3)O[C@@H]2CO)c1,4.9,10.1,-5.3
CN1CCN(C(=O)c2cc3c(c(-c4cccc(-c5cccnc5)c4)n2)[C@@H](CCO)N(C(=O)CC2CC2)C3)CC1,-4.1,-5.0,0.9
C/C=C/c1ccc([C@H]2[C@H](CO)N3CCCCN(C(=O)Nc4cc(F)ccc4F)C[C@@H]23)cc1,24.9,20.3,4.5
CCN(C[C@@H]1N[C@H](CO)[C@H]1c1ccc(-c2cccc(F)c2)cc1)C(=O)COC,-2.1,0.5,-2.6
O=C([C@H]1N[C@H]2c3ccc(C4=CCCC4)c(=O)n3C[C@H]2[C@@H]1CO)N1CCc2ccccc2C1,14.4,6.9,7.4
Cc1ccccc1S(=O)(=O)N(C)C[C@@H]1OCc2cnnn2CCCC(=O)N([C@@H](C)CO)C[C@@H]1C,3.8,6.1,-2.2
Cc1ccccc1-c1ccc([C@H]2[C@H]3CN(C(=O)Cc4ccccn4)CC(=O)N3[C@H]2CO)cc1,3.3,8.4,-5.1
CCC(=O)N1[C@@H]2c3cccc(=O)n3C[C@@H]2[C@@H](CO)[C@@H]1C(=O)NCC1CC1,0.0,2.9,-3.0
CO[C@H](C(=O)N(C)C[C@H]1OCc2ccccc2-c2ccccc2C(=O)N([C@@H](C)CO)C[C@H]1C)c1ccccc1,-6.0,-15.7,9.7
CC=Cc1ccc2n(c1=O)C[C@@H]1[C@@H](CO)[C@H](C(=O)NCC3CC3)[C@H]2N1Cc1ccccc1 (mixture of isomers),-5.5,-3.2,-2.3
CCCC#Cc1ccc([C@@H]2[C@@H](C#N)N(C(=O)CN3CCOCC3)[C@H]2CO)cc1,-0.9,-2.7,1.8
C[C@H]1CN([C@@H](C)CO)C(=O)c2cccc(NC(=O)Nc3ccc(C(F)(F)F)cc3)c2O[C@H]1CN(C)Cc1ccc2c(c1)OCO2,-2.3,-1.3,-1.0
Cc1cccc(-c2ccc(C3[C@@H]4CN(C(=O)C5CCCCC5)C[C@H]3N4)cc2)c1 (some centres not stated),?,·,·
Cc1noc(C)c1NC(=O)Nc1ccc2c(c1)C(=O)N(C)[C@@H]1CC[C@@H](CC(=O)N[C@H]3CCN(Cc4ccccc4)C3)O[C@H]1CO2,2.3,1.8,0.4
COc1cccc(NC(=O)C[C@@H]2CC[C@@H]3[C@@H](COc4ccc(NC(=O)C5CC5)cc4C(=O)N3C)O2)c1,-5.3,-2.0,-3.3
COc1ccccc1NC(=O)N1CCCCN2[C@H](C1)[C@H](c1ccc(C#CC3CCCC3)cc1)[C@@H]2CO,20.1,29.5,-9.4
O=C(O)C[C@@H]1C[C@H]2c3cc(NS(=O)(=O)c4ccc(F)cc4)ccc3O[C@H]2[C@@H](CO)O1,0.1,-5.7,5.8
O=S(=O)(c1ccccc1)N1C[C@H]2[C@@H](c3ccccc31)[C@@H](CO)N2Cc1ccc(F)cc1,-4.5,-2.3,-2.2
COC(=O)[C@H]1[C@H](CO)[C@H]2Cn3c(ccc(-c4ccccc4)c3=O)[C@H]2N1S(C)(=O)=O,-3.0,-4.1,1.2
O=C(C[C@@H]1CC[C@@H]2[C@H](COC[C@@H](O)CN2C(=O)Nc2ccccc2)O1)NCCCN1CCOCC1,17.7,13.8,3.9
Cc1nn(C)cc1NC(=O)C[C@@H]1CC[C@@H]2[C@H](COc3ccc(NC(=O)C4CCOCC4)cc3C(=O)N2C)O1,-1.2,-0.4,-0.8
C/C=C/c1ccc([C@H]2[C@@H](C#N)N(C(=O)CN3CCOCC3)[C@@H]2CO)cc1,1.5,5.5,-3.9
CCCC#Cc1ccc2c(c1)O[C@H](CN(C)C(=O)CC1CC1)[C@H](C)CN([C@H](C)CO)S2(=O)=O,-3.4,-5.3,1.9
C[C@H](CO)N1C[C@H](C)[C@H](CN(C)S(=O)(=O)c2ccc(F)cc2)Oc2cc(C#Cc3ccncc3)ccc2S1(=O)=O,2.8,2.2,0.6
CC=Cc1ccc2n(c1=O)C[C@H]1[C@H](CO)[C@@H](C(=O)NC3Cc4ccccc4C3)N(CC3CCCC3)[C@@H]21 (mixture of isomers),?,·,·
CO[C@H]1CN(C)C(=O)c2ccc(NC(C)=O)cc2OC[C@@H](C)N(Cc2cccc(F)c2)C[C@H]1C,0.6,-5.6,6.2
O=C(NCC(F)(F)F)[C@@H]1[C@@H](CO)[C@@H]2Cn3c(cccc3=O)[C@@H]2N1CCC(F)(F)F,3.1,2.2,0.9
COCC(=O)N1[C@H](CO)[C@H]2c3ccccc3N(C(=O)c3ccccc3)C[C@H]21,0.8,2.2,-1.3
CO[C@@H]1CN(C)C(=O)c2ccc(NC(=O)NC(C)C)cc2OC[C@H](C)N(CC2CC2)C[C@@H]1C,-3.7,1.1,-4.7
C[C@H](CO)N1C[C@H](C)[C@H](CN(C)C(=O)c2ccncc2)OCCCC[C@H](C)Oc2ccc(N(C)C)cc2C1=O,1.6,-0.5,2.2
CCS(=O)(=O)Nc1ccc2c(c1)C(=O)N(C)C[C@H](OC)[C@@H](C)CN(C(=O)CN(C)C)[C@H](C)CO2,3.8,-0.3,4.1
C[C@@H](NC(=O)C[C@H]1CC[C@@H]2[C@H](COC[C@H](O)CN2C(=O)Nc2cccc(F)c2)O1)c1ccccc1,18.9,4.8,14.1
OC[C@@H]1[C@@H](c2ccc(-c3cccc(F)c3)cc2)[C@@H]2CN(CCC(F)(F)F)CCCCN12,?,·,·
CCCC#Cc1ccc([C@@H]2[C@@H](CO)N3C(=O)CN(C(=O)c4ccncc4)C[C@H]23)cc1,-1.3,6.9,-8.2
CCC(=O)N1CCCCN2[C@@H](CO)[C@H](c3ccc(-c4cccc(C(=O)N(C)C)c4)cc3)[C@@H]2C1,0.4,10.5,-10.1
N#C[C@H]1[C@H](c2ccccc2-c2ccccc2F)[C@H](CO)N1C(=O)C1CCC1,2.6,-2.5,5.1
O=C(C[C@H]1C[C@H]2c3cc(NS(=O)(=O)c4ccc(F)cc4)ccc3O[C@H]2[C@H](CO)O1)NCc1ccc(Oc2ccccc2)cc1,?,·,·
C[C@H]1CCCCO[C@H](CN(C)Cc2ccc(C(=O)O)cc2)[C@@H](C)CN([C@@H](C)CO)C(=O)c2cc(N(C)C)ccc2O1,6.1,8.8,-2.7
CCCNC(=O)C[C@H]1CC[C@H]2[C@@H](COC[C@@H](O)CN2Cc2ccc(Cl)c(Cl)c2)O1,-6.6,3.0,-9.7
CO[C@@H]1CN(C)C(=O)c2ccc(NC(=O)C3CCOCC3)cc2OC[C@@H](C)N(S(=O)(=O)c2ccc(C)cc2)C[C@H]1C,-4.8,-2.1,-2.7
O=C(c1cccc(F)c1)N1C[C@H]2[C@@H](c3ccccc31)[C@H](CO)N2C(=O)c1ccccn1,1.8,-0.5,2.3
CN1[C@@H]2c3ccc(-c4cccc(F)c4)c(=O)n3C[C@H]1[C@H](CO)[C@H]2C(=O)Nc1nccs1,1.0,-1.3,2.2
OC[C@@H]1[C@@H](c2ccc(-c3cccnc3)cc2)[C@H]2CN(CC3CC3)CCCCN12,9.8,-3.3,13.1
C[C@@H]1CN([C@H](C)CO)C(=O)c2cc(NC(=O)c3ccccc3)ccc2O[C@@H](C)CCCCO[C@@H]1CN(C)C(=O)CCCN(C)C,-1.2,-5.2,4.0
C[C@@H]1CN([C@H](C)CO)C(=O)CCCn2cc(nn2)CO[C@@H]1CN(C)Cc1ccccc1,10.5,6.4,4.1
O=C(C[C@@H]1C[C@H]2c3cc(NC(=O)CC4CC4)ccc3O[C@H]2[C@@H](CO)O1)NCCN1CCCCC1,2.5,-0.2,2.7
Cn1cnc(S(=O)(=O)N[C@H]2C=C[C@@H](CC(=O)N3CCN(c4ccccc4)CC3)O[C@@H]2CO)c1,4.1,1.0,3.1
CO[C@H](CN(C)Cc1nccs1)[C@H](C)CN([C@@H](C)CO)S(=O)(=O)c1ccc(F)cc1,-0.1,0.4,-0.5
C[C@H](CO)N1C[C@H](C)[C@@H](CN(C)Cc2ccc(Cl)c(Cl)c2)OCc2ccccc2-c2ccccc2C1=O,-7.8,-3.9,-3.9

Fetched by structure from the entries so far:
Compound,DUX4 inh,DUX4 inh difference,DUX4 inh control
O=C(C[C@@H]1C[C@H]2c3cc(NC(=O)CC4CC4)ccc3O[C@H]2[C@@H](CO)O1)NCCN1CCCCC1,2.5,-0.2,2.7
CN1[C@@H]2c3ccc(-c4cccc(F)c4)c(=O)n3C[C@H]1[C@H](CO)[C@H]2C(=O)Nc1nccs1,1.0,-1.3,2.2
CO[C@H](CN(C)Cc1nccs1)[C@H](C)CN([C@@H](C)CO)S(=O)(=O)c1ccc(F)cc1,-0.1,0.4,-0.5
C[C@@H]1CN([C@H](C)CO)C(=O)c2cc(NC(=O)c3ccccc3)ccc2O[C@@H](C)CCCCO[C@@H]1CN(C)C(=O)CCCN(C)C,-1.2,-5.2,4.0
OC[C@@H]1[C@@H](c2ccc(-c3cccnc3)cc2)[C@H]2CN(CC3CC3)CCCCN12,9.8,-3.3,13.1

Following part:
Each structure is followed by: DUX4 inh	DUX4 inh difference	DUX4 inh control
CO[C@@H]1CN(C)C(=O)c2ccc(NC(=O)C3CCC3)cc2OC[C@@H](C)N(Cc2ccncc2)C[C@@H]1C
  -4.0	3.0	-7.0
Cc1ccc(S(=O)(=O)N(C)C[C@H]2OCCCC[C@@H](C)Oc3ccc(NC(=O)C4CCCCC4)cc3C(=O)N([C@H](C)CO)C[C@@H]2C)cc1
  -0.6	-6.2	5.6
CN(C)Cc1cn(CC[C@H]2CC[C@H](NC(=O)Nc3ccc4c(c3)OCO4)[C@@H](CO)O2)nn1
  4.7	-3.9	8.7
C/C=C/c1ccc([C@H]2[C@@H](CO)N3C(=O)CN(C(=O)Nc4cccc(OC)c4)C[C@@H]23)cc1
  -0.5	5.4	-5.9
C[C@@H]1CCCCO[C@@H](CN(C)S(=O)(=O)c2cn(C)cn2)[C@H](C)CN([C@@H](C)CO)C(=O)c2cc(NC(=O)c3ccncc3)ccc2O1
  4.0	0.0	4.0
C/C=C/c1ccc(C2[C@H]3CNC[C@@H]2N3C(=O)NC(C)C)cc1 (some centres not stated)
  17.0	10.1	6.8
CN1CCN(C(=O)C[C@@H]2CC[C@@H]3[C@H](COc4ccc(NC(=O)C5CCOCC5)cc4C(=O)N3C)O2)CC1
  -1.2	-1.6	0.4
Cc1ccccc1CN(C)C[C@@H]1OCc2cn(nn2)CCCC(=O)N([C@H](C)CO)C[C@H]1C
  -1.7	-3.3	1.6
OC[C@H]1[C@@H](c2ccc(C#Cc3cccnc3)cc2)[C@H]2CN(Cc3ccccc3F)CCCCN21
  -42.7*	-32.7*	-10.1*
COc1ccccc1S(=O)(=O)N1CC[C@@H]2[C@H](CO)Nc3ccc(-c4cccc(C#N)c4)cc3[C@@H]21
  ?	·	·
COCC#Cc1ccc([C@H]2[C@@H](CO)N3CCCCN(Cc4ccncc4)C[C@H]23)cc1
  7.9	-0.5	8.4
C[C@H]1CN([C@@H](C)CO)C(=O)c2ccccc2-c2ccccc2CO[C@H]1CN(C)Cc1ccc(F)cc1
  ?	·	·
Cc1ccc(S(=O)(=O)Nc2ccc3c(c2)C(=O)N([C@@H](C)CO)C[C@H](C)[C@@H](CN(C)Cc2ccc4c(c2)OCO4)OCCCC[C@@H](C)O3)cc1
  0.3	-1.3	1.7
C[C@H]1CN([C@@H](C)CO)C(=O)c2cc(NS(=O)(=O)c3ccc(F)cc3)ccc2O[C@H]1CN(C)Cc1ccc(Oc2ccccc2)cc1
  2.9	4.4	-1.5
O=C(NC1Cc2ccccc2C1)[C@H]1[C@H](CO)[C@H]2Cn3c(ccc(C4=CCCCC4)c3=O)[C@@H]1N2
  -4.6	0.7	-5.3
CS(=O)(=O)Nc1ccc2c(c1)[C@H]1C[C@H](CC(=O)NCCc3ccccc3)O[C@@H](CO)[C@H]1O2
  2.0	1.6	0.4
O=C(Cc1ccccc1)N1CC(=O)N2[C@H](CO)[C@H](c3ccc(C#CCc4ccccc4)cc3)[C@H]2C1
  ?	·	·
CCC(=O)N1[C@H](C(=O)NC2CCCCC2)[C@@H](CO)[C@@H]2Cn3c(cccc3=O)[C@@H]21
  4.8	10.2	-5.4
C[C@H](CO)N1C[C@H](C)[C@H](CN(C)S(=O)(=O)c2ccc(Cl)cc2)OCCCC[C@H](C)Oc2ccc(NC(=O)Nc3ccc(C(F)(F)F)cc3)cc2C1=O
  3.3	2.5	0.8
C[C@@H]1CCCCO[C@@H](CN(C)C(=O)Nc2cccc3ccccc23)[C@@H](C)CN([C@H](C)CO)C(=O)c2cc(NC(=O)c3ccncc3)ccc2O1
  0.6	1.4	-0.8
CCCC#Cc1cnc2c(c1)C(=O)N([C@H](C)CO)C[C@@H](C)[C@H](CN(C)Cc1ccccc1F)O2
  1.2	-0.3	1.5
CN(C)C(=O)C[C@@H]1C=C[C@@H](NC(=O)C2CCOCC2)[C@@H](CO)O1
  3.4	4.6	-1.2
